Bioassay records (PubChem)
Six1-Eya2 inh: inhibitors of human Six1/Eya2 interaction; activity change, % (concentration not given with the values); AlphaScreen GST-Six1/His-Eya2 binding, biochemical; active compounds read low; control for the full effect not named in the record; AID 651725; Q15475+O00167; 360,000 tested, 0.56% active; in the data active = activity change below about -65%; inconclusive = about -30% to -65%; inactive = above about -30%; note: % is set by controls: 0 for no effect and ±100 for the full control effect
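Homogeneous AlphaScreen proximity assay pairing GST-Six1 with His-tagged Eya2 (added as 5X mix: 250 nM and 500 nM) in 50 mM Tris pH 8.0, 300 mM NaCl, 1 mM TCEP. Glutathione donor and nickel acceptor beads; 1 h, 37 °C, dark.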
TRPML1 ag: agonists of human TRPML1 channel; Q9GZU1; TRPML1-expressing cells, Ca2+ dye fluorescence, FDSS; host cell line not named in the record; reference of the full effect not given here; activation, % (no concentration beside the values); 410,000 tested, 0.12% active; in the data active = activation above about 50%; inconclusive = about 30% to 50%; inactive = below about 30%; note: 0% is about no effect; the text of the record puts the active cut at 80%
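TRPML1-DL cells, Tet-induced overnight (~16 h, 37 degrees C), loaded 45-90 min at room temperature with Ca8 no-wash calcium dye plus quencher. FDSS fluorescence: 10 s baseline, compound pin-transfer, 110 s agonist read, then EC80 54-4 (4uM final) and 110 s antagonist read.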
TRPML1 inh: inhibitors of human TRPML1 channel; Q9GZU1; TRPML1-inducible cells, Ca2+ dye fluorescence, FDSS; active compounds read low; inhibition of EC80 agonist-evoked calcium signal; activity change, negative = inhibition, % (test concentration not listed); 390,000 tested, 0.02% active; in the data active means activity change below about -50%; inconclusive means about -30% to -50%; inactive means above about -30%;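 note: stimulus is agonist 54-4 at its EC80 concentration; % is set by controls: 0 for no effect and ±100 for the full control effect; compound concentration not given in the record; the text of the record puts the active cut at -80%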
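Calcium fluorescence in TRPML1-DL cells induced overnight with Tet: a 110 s read after compound pin addition, then a 110 s antagonist read after challenge with 54-4 at 4 uM final (EC80).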
TRPV1 potentiator: human TRPV1 potentiation. TRPV1-expressing cells, Fluo-8 calcium influx, capsaicin EC20 potentiation; host cell line not named in the record; control for the full effect not named in the record. Q8NER1. 320,000 tested, 0.02% active. potentiation, % at 8.33 µM. AID 540277; active means potentiation above 80%; inconclusive means 30% to 80%; inactive means below 30%; note: 0% is about no effect
Target sequence (Q8NER1 whole entry, looked up): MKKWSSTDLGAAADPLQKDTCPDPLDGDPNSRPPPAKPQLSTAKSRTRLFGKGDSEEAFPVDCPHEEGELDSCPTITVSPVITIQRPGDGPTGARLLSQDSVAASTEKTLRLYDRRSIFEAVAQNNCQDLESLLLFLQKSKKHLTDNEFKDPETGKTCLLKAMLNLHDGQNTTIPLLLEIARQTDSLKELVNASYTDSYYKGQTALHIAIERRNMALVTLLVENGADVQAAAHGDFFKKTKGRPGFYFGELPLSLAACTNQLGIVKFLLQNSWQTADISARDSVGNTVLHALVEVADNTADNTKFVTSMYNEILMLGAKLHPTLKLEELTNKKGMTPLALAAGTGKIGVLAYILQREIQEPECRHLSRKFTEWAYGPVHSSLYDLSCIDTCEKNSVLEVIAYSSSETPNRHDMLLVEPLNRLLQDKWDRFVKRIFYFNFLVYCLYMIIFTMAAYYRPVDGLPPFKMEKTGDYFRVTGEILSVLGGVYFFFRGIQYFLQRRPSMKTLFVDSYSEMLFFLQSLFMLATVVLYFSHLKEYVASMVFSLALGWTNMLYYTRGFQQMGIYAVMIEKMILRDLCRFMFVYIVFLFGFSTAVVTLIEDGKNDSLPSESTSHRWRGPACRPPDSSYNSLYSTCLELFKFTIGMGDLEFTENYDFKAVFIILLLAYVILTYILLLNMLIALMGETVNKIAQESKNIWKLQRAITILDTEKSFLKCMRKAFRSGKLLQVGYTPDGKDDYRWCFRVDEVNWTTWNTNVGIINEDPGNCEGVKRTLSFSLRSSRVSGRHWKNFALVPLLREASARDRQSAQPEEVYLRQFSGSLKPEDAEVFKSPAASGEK
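Fluo-8 calcium influx in TRPV1-expressing cells, kinetic read (ex 480/em 520 nm). Compound added and read 3 min for agonist activity, followed by capsaicin at EC20 final and 2 min further read for enhancement.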
CtBP-E1A inh: blocks the CtBP interaction with E1A; 340,000 tested, 0.49% active; activity change, % (test concentration not listed); AlphaScreen GST-E1A/His-CtBP binding, 1536-well; active compounds read low; control for the full effect not named in the record; in the data active means activity change below about -65%; inconclusive means about -30% to -65%; inactive means above about -30%; note: % is set by controls: 0 for no effect and ±100 for the full control effect
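GST-E1A and His-tagged CtBP (125 nM each as 5X stock) were preincubated with pin-transferred compound for 2 h at 37 °C in the dark, then glutathione donor and nickel acceptor beads were added for 1 h before AlphaScreen reading.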
D2 PAM: positive allosteric modulators of human D2 dopamine receptor; P14416; DiscoveRx D2 beta-arrestin cells, luminescence, 90 min; 100% = 57 uM dopamine signal; potentiation, % (no concentration beside the values); 360,000 tested, 0.23% active; active = potentiation of 50% or more; inconclusive = 30% to 50%; inactive = 30% or less;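 note: compound concentration not given in the record; tested on top of an EC20 dose of dopamine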
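PathHunter beta-arrestin assay in DiscoveRx D2 cells. Compounds were added with an EC20 of dopamine (50 nM final) for 90 min at 37 deg C. Luminescence was read 1 h after detection reagent, with 57 uM dopamine as the EC100 control.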
Active calls of the source: *; ? = inconclusive; . = no result given; & = joins results of further samples.

cpd	structure	Six1-Eya2 inh	TRPML1 ag	TRPML1 inh
1	N/C(=N\OC(=O)CCCOc1ccc(Cl)cc1Cl)c1ccncc1	-13	0.1	-8
2	O=C(c1ccc(C(=O)N2CCOCC2)nc1)N1CCOCC1	5	-0.5	6
3	CCN(CC)c1ccc2cc(-c3nnc(Nc4ccc(C)cc4)s3)c(=O)oc2c1	.	67*	-28
4	COC(=O)c1ccc(COc2cccnc2[N+](=O)[O-])cc1	-6	-0.4	25
5	CCOc1ccc(NC(=O)CSc2ccc(-c3cccnc3)nn2)cc1	-16	0.0	-6
6	CC(C)c1ccccc1NC(=O)COc1ccc(C(=O)NCCc2ccccc2)cc1	1	0.1	6
7	O=C(CCCCCn1c(=O)[nH]c2ccsc2c1=O)N1CCN(C2CCCCC2)CC1	-11	0.6	-1
8	CC1=NN(c2ccccc2)C(=O)C1C(=O)c1cc([N+](=O)[O-])cc([N+](=O)[O-])c1 (stereo not given)	-23	-0.8	-9
9	CS(=O)(=O)Nc1ccc(C(=O)NCCSC2CCCCC2)cc1	-13	0.0	25
10	Oc1ccccc1Oc1ncc(Br)c(N2CCOCC2)n1	0	2.3	9
11	COc1ccc(CN2CCN(C(C)C)C(CCO)C2)cc1Cn1cccn1 (stereo not given)	1	3.1	11
12	CCC(=O)N1c2ccc(S(=O)(=O)CCC(=O)N3CCn4c3nc3ccccc34)cc2CC1C (stereo not given)	8	-0.2	-7

cpd	TRPV1 potentiator	CtBP-E1A inh	D2 PAM
1	-10	13	-9
2	-7	5	3
3	-3	.	.
4	0	-3	1
5	-4	3	1
6	6	-6	5
7	.	-1	-1
8	4	13	23
9	-15	-10	-7
10	2	1	9
11	7	-15	-17
12	-3	3	25

Additional records.
cpd	structure	Six1-Eya2 inh	TRPML1 ag	TRPML1 inh
13	COc1cc(C(=O)Nc2cccc(-c3nncn3C)c2)cc(OC)c1OC	13	-0.4	5
14	CCC(CC)CC1CN2CCc3cc(OC)c(OC)cc3C2CC1(O)CC (stereo not given)	0	-0.1	28
15	O=C(COC(=O)c1cc(Cl)nc(Cl)c1)NCc1ccc2c(c1)OCO2	-1	4.2	-19
16	CCOC(=O)C1NN=C(C(=O)c2ccccc2)C1c1ccc(Cl)cc1 (stereo not given)	0	0.6	10
17	CC1(C)CC(N2CCC(=O)N(C3CC(C)(C)NC(C)(C)C3)C2)CC(C)(C)N1	2	-0.5	68
18	Cc1cc(C)n2nc(SCc3nc4ccccc4[nH]3)nc2n1	-15	0.2	-2
19	O=C1c2ccccc2C2(c3ccccc3)N1CCN2C(=O)C(Cl)(Cl)Cl (stereo not given)	6	1.0	33
20	CN1CCN(c2ccc(NC(=O)CN3CCOCC3)cc2F)CC1	6	-0.1	1
21	O=C(Cn1cnc2ccccc21)N/N=C/c1cccc([N+](=O)[O-])c1	8	0.8	14
22	COC(=O)c1[nH]c2cc(OC)ccc2c1NC(=O)CCN1CCSCC1	0	0.3	6
23	FC(F)(F)c1nc(N2CCN(c3ccccc3)CC2)nc2c1CCCCC2	9	-0.8	19
24	CCCCOc1ccc(C(=O)NNC(=O)C2C3C=CC(C3)C2C(=O)O)cc1 (stereo not given)	17	2.0	-3

cpd	TRPV1 potentiator	CtBP-E1A inh	D2 PAM
13	7	-1	1
14	.	-4	-26
15	.	-5	-1
16	-11	-1	-12
17	20	2	-12
18	-39	-7	-1
19	-12	7	?
20	?	2	-1
21	2	10	-3
22	-17	2	-21
23	-8	8	-8
24	0	-11	-13

(cont.)
cpd	structure	Six1-Eya2 inh	TRPML1 ag	TRPML1 inh
25	O=[N+]([O-])c1cc(O)c2ncccc2c1	-83*	0.3	-10
26	COc1ccc(CNC(=O)c2csc(Cc3ccc(OC)cc3)n2)cc1	9	-0.3	41
27	Cc1cc(C)cc(C(=O)NC(=S)Nc2ccc(Cc3ccncc3)cc2)c1	-8	3.1	-11
28	CCCCn1nnnc1C1(C)CCC(=O)N1Cc1ccc(C)cc1 (stereo not given)	10	0.4	.
29	COC(=O)c1ccccc1NC(=O)CSc1nc(O)cc(=O)n1C1CCCC1	-3	0.7	3
30	C/C(=N\NC(=O)c1cccc(O)c1)c1ccc(NC(=O)Cc2ccccc2)cc1	-11	0.3	3
31	O=C(O)CCNC(=O)/C(=C\C=C\c1ccccc1)NC(=O)c1ccccc1	11	0.4	-13
32	COc1ccc(NC(=O)CN2C(=O)COc3ccc(S(=O)(=O)N4CCCCC4)cc32)c(OC)c1	-1	2.9	30
33	CCOc1nc(-c2ccccc2)c2cc(Br)ccc2n1	8	2.1	2
34	Cc1ncsc1C(=O)N1CCCC(C(=O)c2ccc3ccccc3c2)C1 (stereo not given)	1	0.8	12
35	Nn1c(-c2cccc([N+](=O)[O-])c2)nc2ccccc2c1=O	-6	-0.3	-14
36	COc1ccc(NC(=O)COc2ccc(C(=O)OCC(=O)N(C)C3CCS(=O)(=O)C3)cc2OC)cc1 (stereo not given)	-15	-0.1	-18

cpd	TRPV1 potentiator	CtBP-E1A inh	D2 PAM
25	9	-94*	-9
26	.	6	7
27	14	13	7
28	.	-2	.
29	18	-3	-12
30	-2	-4	-36
31	-8	0	2
32	-5	-7	-5
33	1	7	5
34	-7	-1	-14
35	24	0	-4
36	0	5	-3

The list goes on:
cpd	structure	Six1-Eya2 inh	TRPML1 ag	TRPML1 inh
37	O=C(NCc1ccncc1)C(=O)NC1CC1	0	-0.5	26
38	CCOC(=O)c1sc(=NC(=O)c2ccc(F)cc2)n(C)c1C	3	-0.1	-8
39	CCOc1cc(CN2CCC(N3CCC(C(=O)NC4CC4)CC3)CC2)ccc1O	1	3.6	9
40	COc1ccc(-c2cc(C(=O)NCc3ccc(C(F)(F)F)cc3)[nH]n2)c(C)c1	-1	-0.2	.
41	N#C/C(=C\c1ccc(O)c(O)c1)C(=O)NCc1ccccc1	-4	1.6&0.2	-2
42	O=c1ccn([C@@H]2O[C@H](CNCc3c(OCc4ccccc4F)ccc4ccccc34)[C@@H](O)[C@H]2O)c(=O)[nH]1	-5	-0.6	-13
43	N#CCCCc1cc2cc(F)ccc2cn1	-3	-0.2	12
44	COc1ccc(NCC(=O)Nc2cccc(C(F)(F)F)c2)cc1S(=O)(=O)N1CCOCC1	-6	0.0	-1
45	COc1ccc(CNCC(O)COc2cccc3c2OC(C)(C)C3)cc1 (stereo not given)	2	0.6	1
46	COc1nc(NCCc2ccc(OC)c(OC)c2)nc(NC(C)(C)CO)n1	-1	-0.2	7
47	Cc1nn(CC(=O)NC2CC2)c(C)c1S(=O)(=O)NC(C)(C)C	0	0.3	50
48	CC(=O)Nc1ccc2nc(CN3CCN(CC=C(C)C)C(CCO)C3)ccc2c1 (stereo not given)	4	-0.7	1

cpd	TRPV1 potentiator	CtBP-E1A inh	D2 PAM
37	?	-1	-9
38	1	6	0
39	.	-24	-10
40	.	-7	-9
41	-11	-5	-7
42	.	-3	-14
43	.	6	-5
44	.	0	-2
45	13	-1	-46
46	-1	-1	-6
47	.	13	-10
48	5	-1	-3

(more compounds)
cpd	structure	Six1-Eya2 inh	TRPML1 ag	TRPML1 inh
49	Cc1cccc(-c2noc(-c3csc([C@@H]4C[C@H](O)[C@@H](CO)O4)n3)n2)c1	2	-0.8	.
50	Cc1ccc(S(=O)(=O)NCCC(=O)OCC(=O)Nc2cccc(S(=O)(=O)NC3=NCCCCC3)c2)cc1	-15	-1.0	-12
51	COc1ccc(S(=O)(=O)N2CCN(CC(=O)NC(C)c3cccs3)CC2)cc1 (stereo not given)	18	-0.9	-20
52	CC(C)CN(C(=O)CN(C)C(=O)c1ccco1)c1c(N)n(CC(C)C)c(=O)[nH]c1=O	6	1.1	-16
53	Cc1onc(-c2ccccc2Cl)c1C(=O)Nc1cccc(-c2cn3cccnc3n2)c1	-11	2.6	-13
54	CN(C(=O)CSc1nnc2ccccn12)C1CCS(=O)(=O)C1 (stereo not given)	9	-0.3	9
55	CCOC(=O)c1cc(-c2nnc(SCC(=O)Nc3ccc(F)cc3)o2)c(C)nc1C	9	-0.6	-18
56	CC(OC(=O)CCN=C1NS(=O)(=O)c2ccccc21)C(=O)Nc1ccc(S(N)(=O)=O)cc1 (stereo not given)	0	-0.5	-2
57	Cc1c(O)ccc(C(=O)CN2CCN(Cc3ccc4c(c3)OCO4)CC2)c1O	-4	-0.5	24

cpd	TRPV1 potentiator	CtBP-E1A inh	D2 PAM
49	.	2	0
50	16	-4	-25
51	.	-14	-10
52	2	-4	4
53	-37	-8	8
54	-3	2	3
55	-29	-7	1
56	3	-8	-15
57	0	2	-15

Nine entries out of the list, arranged by heavy-atom count, falling.
cpd	structure	Six1-Eya2 inh	TRPML1 ag	TRPML1 inh
50	Cc1ccc(S(=O)(=O)NCCC(=O)OCC(=O)Nc2cccc(S(=O)(=O)NC3=NCCCCC3)c2)cc1	-15	-1.0	-12
6	CC(C)c1ccccc1NC(=O)COc1ccc(C(=O)NCCc2ccccc2)cc1	1	0.1	6
51	COc1ccc(S(=O)(=O)N2CCN(CC(=O)NC(C)c3cccs3)CC2)cc1 (stereo not given)	18	-0.9	-20
46	COc1nc(NCCc2ccc(OC)c(OC)c2)nc(NC(C)(C)CO)n1	-1	-0.2	7
22	COC(=O)c1[nH]c2cc(OC)ccc2c1NC(=O)CCN1CCSCC1	0	0.3	6
16	CCOC(=O)C1NN=C(C(=O)c2ccccc2)C1c1ccc(Cl)cc1 (stereo not given)	0	0.6	10
28	CCCCn1nnnc1C1(C)CCC(=O)N1Cc1ccc(C)cc1 (stereo not given)	10	0.4	.
38	CCOC(=O)c1sc(=NC(=O)c2ccc(F)cc2)n(C)c1C	3	-0.1	-8
43	N#CCCCc1cc2cc(F)ccc2cn1	-3	-0.2	12

cpd	TRPV1 potentiator	CtBP-E1A inh	D2 PAM
50	16	-4	-25
6	6	-6	5
51	.	-14	-10
46	-1	-1	-6
22	-17	2	-21
16	-11	-1	-12
28	.	-2	.
38	1	6	0
43	.	6	-5
